High-throughput results as filed in PubChem BioAssay.
Tgondii IFNg = inhibitors of Toxoplasma gondii growth with IFN-gamma; Toxoplasma gondii growth in IFN-gamma-treated host cells; hits give low values; reference of the scale not given here; activity change, negative = inhibition, %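 (about 20 µM by stock and volumes)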; 69,000 compounds, 3.8% hits;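 active = below -70%; inconclusive = fit judged invalid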;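 also: host cells are HeLa cells infected with Toxoplasma gondii; parasite growth read as luciferase light; one replicate is shown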
An asterisk follows results filed as active; i = inactive; ? = inconclusive; & = joins results of further samples. Some of the compounds tested (hit frequency here may not be typical).

no.	Structure	Tgondii IFNg
1	O=C(NCc1ccc2c(c1)OCO2)c1c(O)c2cccnc2[nH]c1=O	108
2	CC(C)C(=O)N1CCCC2(CCCN2CCCc2ccccc2)C1 (stereo not given)	-8
3	O=C(CC1(O)C(=O)N(Cc2ccc3c(c2)OCO3)c2ccccc21)c1ccc(F)cc1 (stereo not given)	-18
4	CCOCCCNC(=O)c1ccc(-c2nc(CN3CCN(c4ccccc4)CC3)c(C)o2)cc1	25
5	Cc1ccc(NC(=O)CN2C(=O)CCc3cc(S(=O)(=O)N4CCCCC4C)ccc32)c(C)c1 (stereo not given)	20
6	O=C(CC1C(=O)NCCN1C(=O)c1ccccc1)Nc1ccc(F)cc1 (stereo not given)	-66
7	COc1ccccc1CNC(=O)Cn1c(=O)ccc2cc(S(=O)(=O)N3CCC(C)CC3)ccc21	-33
8	C=CCn1cc(CN[C@H](CO)c2ccccc2)c(C)n1	-47
9	CCN1Cc2c(C(=O)NCC(C)(C)C)ncn2-c2ccccc2S1(=O)=O	65
10	CN(C)CC(=O)N1[C@H](CO)[C@@H](c2ccccc2-c2ccc(C(=O)N(C)C)cc2)[C@@H]1C#N	-5
11	Cc1ccc(-c2nc(CN3CCN(C(=O)Nc4ccc(C)cc4Cl)CC3)c(C)o2)cc1	0
12	Cc1ccc(Nc2nc(C(=O)NC3CCCCC3)nc3ccccc23)cc1	-52
13	COc1cccc(CNC(=O)CCC2CCCN(c3nc4ccccc4s3)C2)c1 (stereo not given)	26
14	Cc1ccc(C(=O)N2CCN(Sc3ncnc4sccc34)CC2)cc1	-58
15	Cc1ccc(CN2CC[C@@H]3OCCN(C(=O)c4cccnc4)[C@@H]3C2)s1	-8

Pulled one by one from the entries so far (4):
no.	Structure	Tgondii IFNg
5	Cc1ccc(NC(=O)CN2C(=O)CCc3cc(S(=O)(=O)N4CCCCC4C)ccc32)c(C)c1 (stereo not given)	20
15	Cc1ccc(CN2CC[C@@H]3OCCN(C(=O)c4cccnc4)[C@@H]3C2)s1	-8
2	CC(C)C(=O)N1CCCC2(CCCN2CCCc2ccccc2)C1 (stereo not given)	-8
8	C=CCn1cc(CN[C@H](CO)c2ccccc2)c(C)n1	-47

More results
no.	Structure	Tgondii IFNg
16	Cc1noc(C)c1S(=O)(=O)N(C)C[C@@H]1Oc2ccc(NC(=O)c3ccncc3)cc2CC(=O)N([C@@H](C)CO)C[C@@H]1C	6
17	CNC(=O)CC1CC2(CCN(CC(=O)O)CC2)c2ccccc21 (stereo not given)	0
18	CN(C)CCNC(=O)C1CN(Cc2cnn(C)c2)Cc2ccnn2C1 (stereo not given)	-46
19	CCOc1cc(CN2CCC3(CC2)C(=O)N(C(C)C)C(=O)N3CCC(C)C)ccc1OC	-19
20	O=C1CSC(=Nc2ccccc2)N1Cc1cccnc1	-19
21	CC(COc1ccccc1)NCCn1ncc2ccccc2c1=O (stereo not given)	3
22	C=CCNC(=S)NCc1cccs1	2
23	CC1=C(C(=O)NCCCN2CCN(c3ccc(F)cc3)CC2)C2(CCN(Cc3ccccc3)CC2)OC1=O	17
24	Cn1ccnc1CN1CCN2C[C@@H](Oc3cccc(F)c3)C[C@H]2C1	-6
25	CN(Cc1ccccn1)C(=O)c1cc(-c2cnc(-c3ccccc3)nc2)cn1C	65
26	CCC(=O)N1CCCC(c2cc(C(F)(F)F)c3c(=O)n(C)c(=O)n(C)c3n2)C1 (stereo not given)	-79*
27	COC[C@H]1CN(C)C[C@@]12CCN(C(=O)N1CCCC1)C2	87
28	Cc1noc(C)c1S(=O)(=O)Nc1cccc2c1O[C@H](CN(C)Cc1ccc(C(F)(F)F)cc1)[C@H](C)CN([C@@H](C)CO)C2=O	25
29	Cn1ccnc1C(=O)NCc1cnc2n1CCNCC2	-19
30	Cc1nc(C(C)NC(=O)Cc2[nH]nc3ccccc23)n[nH]1 (stereo not given)	-3

Continued.
no.	Structure	Tgondii IFNg
31	O=C(Cc1cccc(F)c1)N1CCC2C1CC(=O)N2c1cccnc1 (stereo not given)	-11
32	COc1ccc(CN2C[C@@H](O)COC[C@@H]3O[C@H](CC(=O)N(C)C)CC[C@H]32)cc1	-11
33	CCOC(=O)c1sc(NC(=O)C(CC)Sc2nc3ccccc3o2)nc1C (stereo not given)	164
34	COC(=O)CN1CCN(Cc2nc(-c3sccc3C)oc2C)CC1=O	3
35	CNCC[C@H](Oc1cccc2ccccc12)c1cccs1	19
36	COc1ccc(-c2nc3sc4c(c3c(=O)[nH]2)CCCC4)cc1	-87*
37	COc1cccc(-c2ccc3n(c2=O)C[C@@H]2[C@@H](CO)[C@H](C(=O)NCC4CC4)[C@H]3N2S(C)(=O)=O)c1	-16
38	COC(=O)c1ccc(CSc2n[nH]c(-c3ccncc3)n2)o1	-19
39	Cc1ccc(C(=O)Nc2cccc(N3CCCCS3(=O)=O)c2)cc1N1CCCC1	15
40	COc1ccc(CN2CCC3(CC(C(=O)N4CCC(N(C)C)CC4)=NO3)C2)cc1 (stereo not given)	7
41	CCN1c2cc(C)ccc2-n2cccc2C12CCN(S(=O)(=O)c1ccccc1)CC2	-79*
42	Cc1cccc(N2CCN(C(c3nnnn3C(C)(C)C)C(C)C)CC2)c1C (stereo not given)	-14
43	COc1ccc2c(C)nc(N3CCCC(C(=O)NC4C5CC6CC4CC(O)(C6)C5)C3)nc2c1 (stereo not given)	2
44	O=C(Nc1ccc(Cl)cc1Cl)Nc1ccccc1C(=O)NCCN1CCNC1=O	-51
45	CCOC(=O)CC(NC(=O)N1CCC2(CC1)Nc1cc(C)ccc1-n1cccc12)c1ccccc1 (stereo not given)	30

Continuation.
no.	Structure	Tgondii IFNg
46	CCOC(=O)C1=C(C)NC(=S)NC1c1cccc(O)c1 (stereo not given)	10&-3
47	O=C(CCn1ccnc1)Nc1ccc2c(c1)OCC(=O)N2	25
48	CCS(=O)(=O)Nc1ccc2c(c1)C(=O)N(C)[C@H]1CC[C@@H](CC(=O)NC3CCCCC3)O[C@@H]1CO2	10
49	CCN(Cc1ccccc1)C(=O)CN1C(=O)CCc2cc(S(=O)(=O)N3CCC(C)CC3)ccc21	-45
50	CCOc1nc(-c2ccccc2)c2cc(C)ccc2n1	i
51	CC(=O)N1CCC2(C(=O)Nc3ccccc3)CC2C1 (stereo not given)	59
52	Cc1cc(=O)oc(C)c1C(=O)N1CCC(c2ccncc2)CC1	-2
53	O=C1N(c2cncnc2)CCC12CCN(c1ncc(F)cn1)CC2	2
54	CN(C)CCN1C(=O)CO[C@H]2CN(C(=O)NCc3cccnc3)C[C@@H]21	2
55	CCOC(=O)N1CCC(NCc2ccccc2-n2ccnc2C)CC1	5
56	C=C1C[C@@H]2COC(=O)[C@]2(Cc2ccc3ccccc3c2)C1	-16
57	COc1ccccc1C(=O)N1CCc2c([nH]c3ccccc23)C1c1ccccc1 (stereo not given)	58
58	CCOc1ccc(-c2nc3c([nH]2)c(=O)n(C)c(=O)n3C)cc1OC	25
59	CN(C(=O)c1cc(N2C[C@H]3CC=CC[C@H]3C2)ccn1)C1CCCCC1	-13
60	Cc1ccc(-c2nc(C)c(CCNC(=O)C(=O)Nc3ccc(F)cc3)s2)cc1	163

The listing continues:
no.	Structure	Tgondii IFNg
61	CCC(CO)N(Cc1cccnc1)Cc1nccn1C (stereo not given)	-46
62	O=C(NCCc1csc(-c2ccccc2)n1)c1ccc(C(F)(F)F)cc1	460
63	C[C@H]1CN([C@@H](C)CO)C(=O)c2cccc(NS(C)(=O)=O)c2O[C@@H]1CN(C)Cc1ccc(-c2ccccc2)cc1	-41
64	COc1ccc(S(=O)(=O)NCCc2sc(-c3ccc(Cl)cc3)nc2C)cc1	-58
65	O=C1NCC[C@]12CN(Cc1ccco1)C[C@H]2c1ccccc1	-1
66	Cc1ccc2[nH]c(CNC(=O)c3ccc(C#CC(C)(C)O)o3)nc2c1C	8
67	Cc1ccc(O)c(CN(Cc2cccnc2)Cc2ccc3c(c2)OCO3)n1	-25
68	N#CCS(=O)(=O)Cc1c(F)cccc1Cl	-55
69	O=C(CN1CCN(c2ccccc2F)CC1)NCCC1=CCCCC1	1
70	O=C(NCCc1nnc2n1CCNCC2)C1(c2ccccc2)CC12CCCC2 (stereo not given)	-4
71	Cc1ccc(C)c(NC(=O)c2nnn(Cc3nc(-c4ccc(OC(C)C)cc4)oc3C)c2C)c1	11
72	CCC(C(=O)N(C)Cc1ncccc1C)N1Cc2ccccc2C1=O (stereo not given)	11
73	Fc1ccccc1C1c2[nH]c3ccccc3c2CCN1Cc1cnc(N2CCOCC2)s1 (stereo not given)	12
74	COc1ccc(F)c(F)c1-c1nccn1-c1ccc(-n2cncn2)cc1	0
75	O=C(CN1C(=O)CCc2cc(Br)ccc21)NCCc1ccccc1	112

The final 5 compounds of the section above lead into the next:
no.	Structure	Tgondii IFNg
71	Cc1ccc(C)c(NC(=O)c2nnn(Cc3nc(-c4ccc(OC(C)C)cc4)oc3C)c2C)c1	11
72	CCC(C(=O)N(C)Cc1ncccc1C)N1Cc2ccccc2C1=O (stereo not given)	11
73	Fc1ccccc1C1c2[nH]c3ccccc3c2CCN1Cc1cnc(N2CCOCC2)s1 (stereo not given)	12
74	COc1ccc(F)c(F)c1-c1nccn1-c1ccc(-n2cncn2)cc1	0
75	O=C(CN1C(=O)CCc2cc(Br)ccc21)NCCc1ccccc1	112
76	Fc1ccc(Cn2ncc3c2CN(c2ncnc4sccc24)C3)cc1	-70
77	CC(=O)O/N=C1\Sc2ccccc2C1=O	113
78	COc1ccc2c3c(n(C)c2c1)[C@H](CO)N(C(=O)C1CCCC1)CC31CN(C(=O)CC2CC2)C1	?
79	COC(=O)c1c(NCc2ccc(C)o2)c2cccc(Cl)c2[nH]c1=O	-62
80	C=CCN1CCOCC2(C1)CN(CC1CC1)CCO2 (stereo not given)	94
81	Cc1cccc(Nc2nc(C(=O)NC3CCCCCCC3)nc3ccccc23)c1	-83*
82	COC(=O)[C@@H]1C[C@@H](NC(=O)NCCc2ccc(F)cc2)CN1C	4
83	CC(C)Cc1ccc(C(C)C(=O)Nc2ccc(O)cc2)cc1 (stereo not given)	-1
84	COc1cccc(-c2nccn2C(C)Cn2cncn2)c1OC (stereo not given)	-4
85	O=C(CCN1CCN(CCn2cncn2)CC1)Nc1nccs1	17
86	CCC(=O)Nc1ccc(F)c(Cl)c1	42
87	O=C(NC1CCCC1)N1CCC2(C1)c1ccccc1S(=O)(=O)N2Cc1ccc(F)cc1 (stereo not given)	55
88	COc1ccccc1OCC(O)CNC(C)C (stereo not given)	22&25
89	C[C@@H]1CCCCO[C@H](CN(C)C(=O)Nc2ccc(C(F)(F)F)cc2)[C@H](C)CN([C@H](C)CO)C(=O)c2cc(NS(=O)(=O)c3cn(C)cn3)ccc2O1	-83*
90	CCn1c(CC2CCN(C(=O)c3ccc4nc[nH]c4c3)CC2)n[nH]c1=O	3

The results go on:
no.	Structure	Tgondii IFNg
91	CC(C)N1CCOCC2(CN(CC3CC3)CCO2)C1 (stereo not given)	50
92	CCCc1nc(C(=O)N2Cc3cnc(C(C)(C)C)nc3C2)cs1	-30
93	N#Cc1ccc(-c2ccc([C@@H]3[C@@H]4CN(Cc5cocn5)C[C@H]3N4)cc2)cc1	-46
94	CC(C)(C)C(=O)Nc1ccc(-c2nc3ccccc3[nH]2)cc1	124
95	O=C(Cn1c(=O)cc(C(=O)N2CCc3ccccc3C2)c2ccccc21)Nc1ccc(F)cc1F	2
96	CC(=O)N1CCC2(CC1)OC(=O)C(C)=C2C(=O)NCCN1CCCC1	85
97	CC[C@@H]1C/C=C\C[C@H](C(C)C)NC(=O)CCC(=O)N1	-38
98	COCC#Cc1ccc([C@H]2[C@H](CO)N3CCCCN(Cc4cccnc4)C[C@@H]23)cc1	15
99	O=c1ccc2cc(S(=O)(=O)NCCN(Cc3ccco3)C3CCCC3)ccc2[nH]1	28
100	Cc1ccc(S(=O)(=O)NCC[C@H]2CC[C@@H](NC(=O)c3cccnc3)[C@@H](CO)O2)cc1	-26
101	COc1cncc(C(=O)Nc2ccc(C)c(F)c2)c1	-15
102	COC(CNC(=O)c1nnc2nc(C)cc(C)n12)c1cccs1 (stereo not given)	-8
103	COc1ccc(N(C(=O)c2ccc(C)cc2)C2(C(=O)NCc3ccccc3)CCN(C(C)=O)CC2)cc1	61
104	COc1cc(CN2[C@@H]3CC[C@H]2CNC(=O)C3)cc2c1OCO2	3
105	Cc1nn(C)c(C)c1CNC(=O)Nc1csc2ccccc12	-64

Continued.
no.	Structure	Tgondii IFNg
106	CCc1ccc(Nc2nc(C(=O)N3CCCCC3C)nc3ccccc23)cc1 (stereo not given)	-57
107	CCn1c(C2CCN(Cc3cnc(-c4ccccc4)nc3)CC2)nn(C)c1=O	-7
108	CC(C)c1cc(C(=O)Nc2cccc(-n3cccn3)c2)c2c(=O)[nH]c(=O)n(C)c2n1	4
109	CCN1C(=O)CCc2cc(NC(=O)Cc3ccc(OC)cc3)ccc21	1
110	Cc1nc(C)n(CCNC(=O)C(C)Cc2cccs2)n1 (stereo not given)	-7
111	Cc1nc(OCC(=O)NCc2ccc(F)cc2)c2ccccc2n1	0
112	COc1cc(C(=O)N2CCC3(CC2)Nc2cc(C)ccc2-n2cccc23)cc(OC)c1OC	-11
113	CCN1CCN(C)C2(CCN(C(=O)c3cnc[nH]3)CC2)C1=O	-8
114	Cn1cnnc1C1CCN(c2nc(-c3ccncc3)nc3c2CNC3)CC1	5
115	O=C(Nc1ccccc1F)N[C@H]1CC[C@H](CCNC(=O)C2CC2)O[C@@H]1CO	-21
116	O=C(CN1CCN(C(=O)c2cccs2)CC1)NC1CCCCC1	-9
117	CCn1c(CC2CCN(Cc3ccc4occc4c3)CC2)nn(C)c1=O	0
118	COc1ccc(C#Cc2cccc(-c3nc(C(=O)NCc4ccc5c(c4)OCO5)cc4c3[C@@H](CCO)N(S(=O)C(C)(C)C)C4)c2)cc1OC (stereo not given in full)	8
119	COc1ccc([C@@H]2CC=CC[C@H](C)Oc3ccccc3C(=O)N(C)[C@@H](C(C)C)C(=O)N2)c(OC)c1 (mixture of isomers)	33
120	CC1CNC(=O)CCN1Cc1ccc(S(C)(=O)=O)cc1 (stereo not given)	2
121	COc1ccc(-c2nc3c4c(-c5ccccc5)c(-c5ccccc5)oc4ncn3n2)cc1OC	6
122	O=C(Nc1ccc(Cl)cc1)OC(CSc1ccccn1)CSc1ccccn1	-63
